Assay outcomes deposited in PubChem by Johns Hopkins Ion Channel Center.
CHT allo act – allosterically activates the human high affinity choline transporter | Q9GZV3 | CHT-expressing cells, membrane potential dye, choline EC20; stronger effect = higher value; LV-AA mutant CHT in HEK293 cells | B-score at 10 µM | 310,000 tested, 0.49% active;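 active = initial fluorescence not abnormally high and integrated response B-score, plate-corrected, over 3 SD above library mean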
Target sequence (Q9GZV3 whole entry, looked up): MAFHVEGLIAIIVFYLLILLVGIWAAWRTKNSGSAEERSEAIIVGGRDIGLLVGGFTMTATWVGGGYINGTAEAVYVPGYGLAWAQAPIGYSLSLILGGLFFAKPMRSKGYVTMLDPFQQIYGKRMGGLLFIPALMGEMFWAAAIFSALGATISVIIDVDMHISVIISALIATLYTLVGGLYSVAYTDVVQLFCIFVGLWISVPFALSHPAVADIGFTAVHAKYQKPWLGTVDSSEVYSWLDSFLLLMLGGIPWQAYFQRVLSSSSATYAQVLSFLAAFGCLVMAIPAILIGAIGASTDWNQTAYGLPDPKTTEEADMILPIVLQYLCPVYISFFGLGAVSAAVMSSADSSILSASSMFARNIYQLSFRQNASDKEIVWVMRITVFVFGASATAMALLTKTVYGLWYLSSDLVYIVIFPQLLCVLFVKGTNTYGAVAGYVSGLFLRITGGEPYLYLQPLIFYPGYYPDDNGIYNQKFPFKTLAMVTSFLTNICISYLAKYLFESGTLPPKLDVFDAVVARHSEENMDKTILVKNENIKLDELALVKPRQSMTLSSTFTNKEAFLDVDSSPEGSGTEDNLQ
Calls only; i = inactive. Not all compounds are listed, and most or all hits are left out here.

SMILES	CHT allo act
CCCCS(=O)(=O)NC1=NCN(CC)CN1	i
CCOC(=O)CN1C(=O)N[C@@H](CCc2ccccc2)[C@H](C(C)=O)[C@H]1C	i
Cn1c(SCC(=O)Nc2cc(Cl)cc(Cl)c2)nnc1-c1ccc2nonc2c1	i
Fc1ccccc1NC(=S)N1CCN(c2ccccn2)CC1	i
CC(C)(C)NC(=O)CSc1nnc(NC(=O)c2ccccc2Cl)s1	i
O=C(C#Cc1cccc([N+](=O)[O-])c1)c1ccccc1	i
Nc1cccc(-c2cn3cc(C(F)(F)F)cc(Cl)c3n2)c1	i
COCCNC(=O)C(c1ccc(F)cc1)N(C(=O)CCC(=O)Nc1nccs1)c1cccc(C)c1 (stereo not drawn)	i
CC(C)(C)NC(=O)CSCc1c(Cl)cccc1Cl	i
CCOC(=O)c1c(NC(=O)COC(=O)c2ccc([N+](=O)[O-])cc2)sc(C(=O)N(C)C)c1C	i

Some of the entries so far, field by field.
compound: Nc1cccc(-c2cn3cc(C(F)(F)F)cc(Cl)c3n2)c1
  CHT allo act: i
compound: COCCNC(=O)C(c1ccc(F)cc1)N(C(=O)CCC(=O)Nc1nccs1)c1cccc(C)c1 (stereo not drawn)
  CHT allo act: i
compound: CC(C)(C)NC(=O)CSCc1c(Cl)cccc1Cl
  CHT allo act: i
compound: CCOC(=O)c1c(NC(=O)COC(=O)c2ccc([N+](=O)[O-])cc2)sc(C(=O)N(C)C)c1C
  CHT allo act: i

The listing picks up; the three compounds before the break are reprinted first.
SMILES	CHT allo act
COCCNC(=O)C(c1ccc(F)cc1)N(C(=O)CCC(=O)Nc1nccs1)c1cccc(C)c1 (stereo not drawn)	i
CC(C)(C)NC(=O)CSCc1c(Cl)cccc1Cl	i
CCOC(=O)c1c(NC(=O)COC(=O)c2ccc([N+](=O)[O-])cc2)sc(C(=O)N(C)C)c1C	i
Cc1nc(SCC(=O)NCc2ccccc2)c2oc3ccccc3c2n1	i
O=C(CC1C(=O)NCCN1Cc1ccccc1C(F)(F)F)NC1CCCC1 (stereo not drawn)	i
CCC(Oc1cc(Cl)ccc1Cl)C(=O)NN1C(=O)C2C3CCC(C3=C(C)C)C2C1=O (stereo not drawn)	i
Cc1ccc(Nc2nc(C)cc(C)c2C(N)=O)cc1	i
O=C(NN=C1CCCC1)C1COc2ccccc2O1 (stereo not drawn)	i
COc1ccc(N(C(=O)c2cccnc2)S(=O)(=O)c2ccc3c4c(cccc24)C(=O)N3C)cc1	i
CCOC(=O)CC(=O)CSc1nc2ccccc2c(=O)n1-c1ccc(C(=O)NCCOC)cc1	i
CCCNC(=O)c1ccc(N2CCC3(CC2)CC(c2cccc(Br)c2)=NO3)c(NC(=O)c2ccc(Br)cc2)c1	i
Cc1nn(CCOc2cccc(Cl)c2)c(C)c1[N+](=O)[O-]	i
CC(C)NC(=O)CN1CCC(O)(c2ccccc2)CC1	i
COc1ccc(CCN=C(N)NS(=O)(=O)c2ccc(C)cc2)cc1	i
Cc1ccc(C)c(N(C(=O)c2csnn2)C(C(=O)NC2CCCCC2)c2ccccn2)c1 (stereo not drawn)	i
Cc1cc(C)n(CC(=O)c2cccc([N+](=O)[O-])c2)n1	i
COc1ccc2[nH]c(=O)c(CN(Cc3cccnc3)C(=S)NCC3CCCO3)cc2c1 (stereo not drawn)	i
O=C(c1cccc(S(=O)(=O)N2CCCC2)c1)c1cccc(S(=O)(=O)N2CCCC2)c1	i
CN(c1ccc(OCC(=O)Nc2nc(-c3ccccc3)cs2)cc1)S(=O)(=O)c1ccc(F)cc1	i
O=C(CN1C(=O)c2ccccc2C1=O)NCc1ccc(C(=O)O)cc1	i
O=C(c1ccccc1Cl)N1CCN(S(=O)(=O)N2CCCCC2)CC1	i
CC[C@H](C)C(C(=O)N1CCN(C(=O)OC(C)(C)C)CC1)n1cc(C(Cc2ccc(O)cc2)NC(=O)OC(C)(C)C)nn1 (stereo partly drawn)	i
COc1ccc(NC(=O)CN(C)C2CCCCC2)c([N+](=O)[O-])c1	i
CCn1c(SCC(=O)NC2CCCCC2)nnc1-c1cccnc1	i
Cc1ccc2nc(-c3ccc(SCC(=O)Nc4cc(C)on4)nc3)[nH]c2c1	i
COc1ccc(S(=O)(=O)N2CCNC(=O)C2)cc1Br	i
COc1ccc(OC)c(CN2CCN(S(=O)(=O)c3ccccc3)CC2)c1	i
COC(=O)C(NC(=O)CN1C(=O)c2ccccc2C1=O)c1ccc(O)c(OC)c1 (stereo not drawn)	i
O=[N+]([O-])c1ccccc1/C=N/N1CCN(c2ccccn2)CC1	i
CC(=O)Nc1ccc2nc(SCC(=O)NCCOc3ccccc3)sc2c1	i
CCOC(=O)C1=C(CNC(C)(C)CC(C)(C)C)NC(=O)NC1c1cccc([N+](=O)[O-])c1 (stereo not drawn)	i
CCCC(=O)n1nc(-c2ccc(OC)cc2)nc1N	i
Cc1nc(NC(N)=S)sc1C(=O)Nc1ccccc1	i
COc1ccccc1NC(=O)C(=O)N/N=C/c1cccs1	i
CN(C)Cc1ccc(F)cc1Sc1cc(Cl)ccc1Cl	i
COCC(=O)N1CCC(Oc2ccc(C(=O)NC3CCOC(C)(C)C3)cc2)CC1 (stereo not drawn)	i
C=CCN(C(=O)Cn1c(C(=O)OC)cc2oc(C)cc21)c1ccccc1	i
Cc1ccc(NCc2nnc(SCC(=O)c3ccc4c(c3)OCCO4)o2)c(C)c1	i
Cc1ccc(S(=O)(=O)N[C@H](C(=O)N2CCC(C(=O)N[C@@H](CC(=O)O)C(=O)O)CC2)C(C)C)cc1	i
NC(=O)CSc1nnc(-c2ccccn2)n1N	i
CSc1ccc(CN(C)C(=O)CSCC(=O)Nc2ccc(C)cc2)cc1	i
COc1ccc(Nc2nc(C)cc(C)c2C#N)cc1	i
COc1ccc2cc(CN(C(=O)Nc3ccccc3)C3CCCC3)c(=O)[nH]c2c1	i
O=C(Nc1ccc(Cl)c(C(F)(F)F)c1)c1ccco1	i
O=C(Cc1cccs1)Nc1nnc(SCc2ccc(F)cc2)s1	i
CCC(C)N1C(=O)S/C(=C/c2ccc3c(c2)n(C)c(=O)n3C)C1=O (stereo not drawn)	i
Cc1ccccc1N(CC(=O)N/N=C/c1ccccc1Cl)C(=O)c1ccccc1	i
CCOC(=O)[C@H]1[C@H]2COc3ccc(C)cc3[C@@H]2N2C(=O)c3ccc(C)cc3NC(=O)[C@@]12C	i
CCOC(=O)c1cccc(NC(=O)CCc2c(C)nc3ncnn3c2C)c1	i
O=C(CSc1ccsc1[N+](=O)[O-])NCc1ccccc1	i
Cc1nc(C)c(C(=O)C2=C(O)C(=O)N(CCCn3ccnc3)C2c2ccc(Cl)cc2)s1 (stereo not drawn)	i
CCOc1c(S(=O)(=O)N2CCCC2)ccc(Cl)c1Cl	i
COc1ccccc1CNC(=O)c1c(-c2ccccc2Cl)noc1C	i

(more compounds)
Molecule | CHT allo act
O=CNC1CCCc2c1[nH]c1ccc(Cl)cc21 (stereo not drawn) | i
COc1ccc(NS(=O)(=O)c2cc(Br)cc3c2N(C(C)=O)CC3)cc1 | i
COc1ccc(N2CCC(CNC(=O)Nc3ccc(OC)cc3OC)C2)cc1 (stereo not drawn) | i
O=C(CN1CCOCC1)Nc1scc(-c2ccccc2)c1C(=O)N1CCOCC1 | i
Cn1c(=O)c2sccc2n2c(CCCC(=O)N3CCN(c4ccccn4)CC3)nnc12 | i
CCc1ccc(/C=N/N2CCN(c3ccccn3)CC2)cc1 | i
COc1ccc(-c2cc(C(F)(F)F)nc(NCc3cccs3)n2)cc1 | i
CCOC(=O)N1CCN(C(=O)c2cc3ccc(OC)cc3[nH]2)CC1 | i
O=C(C1CCCN(S(=O)(=O)c2ccccc2)C1)N1CCN(c2ccccc2)CC1 (stereo not drawn) | i
O=C1CNc2ccc(C(=O)N3CCN(c4ccccn4)CC3)cc2N1 | i
COc1ccc(CN2CCCC(C(=O)N3CCCC3)C2)cc1 (stereo not drawn) | i
O=C(CSc1nnnn1C1CCCCC1)Nc1ccccc1N1CCOCC1 | i
CCCCN(CC)C(=O)CN(C)S(=O)(=O)c1cccc2nsnc12 | i
COc1ccc(C)cc1N(CC(=O)N1CCCCCC1)S(=O)(=O)c1ccc(C)cc1 | i
Cc1ccc(OCC(=O)N(Cc2ccccc2)c2ccccn2)cc1 | i
CSc1nc(NC(C)(C)C)nc(Oc2ccc(=O)n(C)n2)n1 | i
CC(=O)C1C(c2ccc([N+](=O)[O-])cc2)C2C(C)=NN=C2CC1(C)O (stereo not drawn) | i
O=C(CSc1nnc2ccccn12)N1CCOCC1 | i
COc1cccc(NC(=O)COC(=O)Cc2ccccc2[N+](=O)[O-])c1 | i
Cc1c[n+]([O-])cc(C)c1Oc1ccccc1 | i
O=C(Cc1ccc([N+](=O)[O-])cc1)NCc1ccccn1 | i
O=C(O)c1ccc(CSc2n[nH]c(-c3ccco3)n2)cc1 | i
O=C(O)c1ccccc1/C=N/Nc1nc(N2CCCCC2)nc(N2CCCCC2)n1 | i
COc1ccccc1N1CCN(C(=S)NC(=O)/C=C/c2ccc(F)cc2)CC1 | i
CC(C)C(=O)Nc1sc2c(c1-c1nc3ccccc3[nH]1)CCCC2 | i
Cc1ccc(C(=O)NNC(=O)C(C)Oc2ccc3ccccc3c2)o1 (stereo not drawn) | i
O=C(NCCNC(=O)c1ccc(Br)o1)c1ccc(Br)o1 | i
Cn1c(=O)cc(Nc2ccccc2)[nH]c1=O | i
CCOc1ccc(OCC)c(NC(=O)c2[nH]c(C)c(C(C)=O)c2C)c1 | i
CCc1ccc(C(=O)N2CCN(c3ccc(NC(=O)c4cccnc4)cc3)CC2)cc1 | i
O=C(O)CCC(=O)Nc1cccc(C(=O)c2ccccc2)c1 | i
CCOC(=O)/C(C#N)=C1/SC(CCO)C(=O)N1c1ccccc1 (stereo not drawn) | i
COc1cc(CC(=O)Nc2nc(C)cs2)cc(OC)c1OC | i
Cc1cc(C=O)c(C)n1-c1ccc(NC2CCCCC2)c([N+](=O)[O-])c1 | i
Cc1cc(C)c(C(=O)COC(=O)Cn2cnnn2)cc1C | i
CC(OC(=O)CCOc1ccccc1)C(=O)NC1CC1 (stereo not drawn) | i
Nc1nc(COc2ccc(F)cc2Cl)nc(N2CCCCC2)n1 | i
COc1ccc2c(c1)CCc1c(C(=O)NCCCn3ccnc3)noc1-2 | i
CC(=O)Nc1ccc(S(=O)(=O)N(C)CC(=O)OCC(=O)c2cc(C)n(-c3ccc4c(c3)OCO4)c2C)cc1 | i
Cc1nc(CC(=O)NNS(=O)(=O)c2ccc3ccccc3c2)cs1 | i
Cc1ccc2c(CN3CCN(S(=O)(=O)c4ccc5c(c4)OCCO5)CC3)cc(=O)oc2c1C | i
Cc1ccccc1CSc1nnc(-c2ccccn2)n1N | i
CCc1ccccc1NC(=O)/C(=C/c1ccccc1)c1ccccc1 | i
CCNc1nc(Cl)nc(NC2CCCCC2)n1 | i
Cc1ccc(OCCCC(=O)NC(C)c2ccccc2)c(C)c1 (stereo not drawn) | i
CC(C)(C)NC(=S)NNC(=O)c1ccncc1 | i
CC(=O)O[C@]1(C(C)=O)CC[C@H]2[C@@H]3C[C@H](C)C4=CC(=O)CC[C@]4(C)[C@H]3CC[C@@]21C | i
Cc1cccc(NC(=O)CSCC(=O)Nc2nnc(C3CC3)s2)c1 | i
CCN(CC(=O)Nc1ccc2c(c1)OCCO2)C(=O)/C=C/c1ccc(OC)c(OC)c1 | i
CCc1nc(SCc2ccc(OCC(C)C)cc2)n[nH]1 | i
CC(=O)c1ccc(NC(=O)/C=C/c2ccc(C)cc2)cc1 | i
O=Cc1cccn1-c1cccc([N+](=O)[O-])c1 | i
Cc1c(C(c2ccc([N+](=O)[O-])cc2)c2c(C)n(C)n(-c3ccccc3)c2=O)c(=O)n(-c2ccccc2)n1C | i
O=C(c1ccc(NS(=O)(=O)c2ccc(F)cc2)cc1)N1CCOCC1 | i
O=[N+]([O-])c1cccc(S(=O)(=O)Nc2cccc(-c3ccc(N4CCOCC4)nn3)c2)c1 | i
Cc1cccc(N2CC(C(=O)Nc3nnc(SCCC4OCCO4)s3)CC2=O)c1 (stereo not drawn) | i
Cc1ccc(-c2ccc(=O)n(CCC(=O)N3CCN(c4ccccc4)CC3)n2)cc1 | i
O=C(Nc1cccc(O)c1)c1ccc2c(c1)C(=O)N(Cc1ccco1)C2=O | i
CN(C)c1nc(SCCOC(=O)Nc2ccccc2)nc(N(C)C)n1 | i
Cc1ccc(/C(O)=C2\C(=O)C(=O)N(C)C2c2ccccc2[N+](=O)[O-])cc1 (stereo not drawn) | i

The results go on.
Molecule | CHT allo act
COc1ccc(NC(=O)CSCC(=O)Nc2sccc2C#N)cc1 | i
CC(C)(/C=N/O)/[N+]([O-])=C/c1ccco1 | i
COc1ccc(OC)c(C2C3=C(CCCC3=O)Nc3c2c(=O)n(C)c(=O)n3C)c1 (stereo not drawn) | i
Cc1nc(C(F)(F)F)ccc1C(=O)NN1CCOCC1 | i
O=C(c1ccc(S(=O)(=O)Cc2ccccc2F)c([N+](=O)[O-])c1)N1CCCCCC1 | i
CC(=O)OC(C(=O)N1CCN(c2ccc(F)cc2)CC1)c1ccccc1 (stereo not drawn) | i
O=C(NCc1ccc2c(c1)OCO2)c1cc2ccccc2o1 | i
O=C(O)c1c[nH]c(=O)c2ccccc12 | i
CC(C)Cc1nnc(NC(=O)CCC(=O)N2CCN(Cc3ccc(Cl)cc3)CC2)s1 | i
COc1ccc(C2CC(c3ccccc3OC(C)=O)=NN2C(=O)/C=C/c2ccccc2)cc1OC (stereo not drawn) | i
CCCCc1nc2ccccc2[nH]1 | i
COC(=O)c1ccccc1NC(=O)CN(C)S(=O)(=O)c1ccc(OC)c(C)c1 | i
O=C(Nc1cccc(C(=O)O)c1)/C(=C/c1ccc([N+](=O)[O-])cc1)NC(=O)c1ccccc1 | i

An excerpt from above in order of SMILES length, falling.
Molecule | CHT allo act
O=C(Cc1cccs1)Nc1nnc(SCc2ccc(F)cc2)s1 | i
CCc1ccc(/C=N/N2CCN(c3ccccn3)CC2)cc1 | i
O=Cc1cccn1-c1cccc([N+](=O)[O-])c1 | i
